Bioassay records deposited in PubChem BioAssay by Vanderbilt University.
GIRK2 act: activators of human GIRK2 potassium channels; G protein-activated inward rectifier potassium channel 2 (Homo sapiens), P48051; HEK293-GIRK2 thallium flux, Thallos fluorescence; calls only for hits at 25 µM; 0.05% of 63,000 active;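 active means among the strongest 0.2% of first-round signals and kept after retests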;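 further: first round at about 10 µM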
Target sequence (P48051 whole entry, looked up): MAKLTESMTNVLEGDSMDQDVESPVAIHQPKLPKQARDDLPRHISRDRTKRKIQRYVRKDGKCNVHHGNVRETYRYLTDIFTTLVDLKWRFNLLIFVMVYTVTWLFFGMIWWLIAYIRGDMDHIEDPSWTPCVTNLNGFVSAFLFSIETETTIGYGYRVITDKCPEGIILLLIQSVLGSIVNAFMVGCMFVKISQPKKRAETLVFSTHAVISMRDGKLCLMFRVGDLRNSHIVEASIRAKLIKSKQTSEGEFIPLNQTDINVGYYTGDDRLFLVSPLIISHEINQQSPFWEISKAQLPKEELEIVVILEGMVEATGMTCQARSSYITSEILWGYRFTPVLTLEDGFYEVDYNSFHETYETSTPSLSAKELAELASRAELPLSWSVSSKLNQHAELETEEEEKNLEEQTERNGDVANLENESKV
Calls only; i = inactive. This is a subset, so the mix of outcomes need not match the whole.

A first look, 4 compounds:
GIRK2 act	SMILES
i	COc1ccccc1OCC(=O)N1CCN(c2nnc(SCC(=O)Nc3ccccc3)s2)CC1
i	O=C(Nc1ccc2ccccc2c1)N1CCN(c2cc(Nc3ccccn3)ncn2)CC1
i	Cc1cc(OCC(=O)Nc2ccccc2C)nc(N2CCc3ccccc3C2)n1
i	CCOC(=O)Cn1c(=O)c2c(nc3n(C4CCCCC4)c(C)cn23)n(C)c1=O

The list itself, from the first entry:
GIRK2 act	SMILES
i	COc1ccccc1OCC(=O)N1CCN(c2nnc(SCC(=O)Nc3ccccc3)s2)CC1
i	O=C(Nc1ccc2ccccc2c1)N1CCN(c2cc(Nc3ccccn3)ncn2)CC1
i	Cc1cc(OCC(=O)Nc2ccccc2C)nc(N2CCc3ccccc3C2)n1
i	CCOC(=O)Cn1c(=O)c2c(nc3n(C4CCCCC4)c(C)cn23)n(C)c1=O
i	CCOc1ccc(-c2csc3c(=O)n(CCC(C)C)cnc23)cc1OCC
i	O=C(NCc1cccs1)NCC1CCN(Cc2ccco2)CC1
i	O=C(C1CCCCC1)N1CCc2cc(S(=O)(=O)NC3CCCC3)ccc21
i	COc1cc(Nc2c(-c3nc(C4CC4)no3)cnc3nc(C)ccc23)cc(OC)c1
i	Cc1nnc(C2CCCN(C(=O)c3ccc(S(=O)(=O)N(C)C)cc3)C2)s1 (centres undefined)
i	Cc1onc(-c2ccccc2Cl)c1C(=O)NCc1cc(-c2ccncc2)n(C2CCCC2)n1
i	Cn1cc(C(=O)NCCc2ccccc2)nn1
i	CC(C)(C)c1ccc(C(=O)N2CCCCCC2=O)cc1
i	CS(=O)(=O)N1CCC(C(=O)N2CCC(Cn3cccn3)CC2)CC1
i	CC(C)CN1C(=O)C(C)(C)COc2cc(NC(=O)Nc3cccs3)ccc21
i	CC12CCC(C(=O)Oc3ccc(-c4ccc(C#N)cc4)cc3)(CC1=O)C2(C)C (centres undefined)

Nothing new here: entries from further up.
GIRK2 act	SMILES
i	CS(=O)(=O)N1CCC(C(=O)N2CCC(Cn3cccn3)CC2)CC1
i	CC(C)CN1C(=O)C(C)(C)COc2cc(NC(=O)Nc3cccs3)ccc21

Next structures follow:
GIRK2 act	SMILES
i	NC(=O)CSc1cnn(CC(=O)Nc2ccc(F)c(F)c2)c(=O)c1Cl
i	O=C(Cn1cc(-c2nnc(-c3ccco3)o2)c2ccccc21)N1CCc2ccccc21
i	COc1ccc(-c2ccc(C(=O)Nc3ccc(Cl)cc3)o2)c([N+](=O)[O-])c1
i	O=C(CSCc1ccccc1)NCC1CCN(C(=O)c2ccoc2)CC1
i	CCC(C)n1c(C)cn2c3c(=O)n(CCC(C)C)c(=O)n(C)c3nc12 (centres undefined)
i	Cc1cc(CNC(=O)c2cnc3ccccc3n2)c(C)o1
i	COCC(C)(O)CNS(=O)(=O)Cc1ccc(C(F)(F)F)cc1 (centres undefined)
i	Cc1ccccc1NCCn1c(C)c(C)n2c3c(=O)n(C)c(=O)n(C)c3nc12
i	O=S(=O)(c1ccc(Br)cc1)c1nnn2c1nc(NCc1ccco1)c1sccc12
i	O=C(O)c1cc(O)c2c(c1)C(=O)c1cc(O)c(Cl)c(O)c1C2=O
i	COc1ncccc1C(=O)N1CCCC(c2nnc(-c3ccc4c(c3)OCO4)o2)C1 (centres undefined)
i	CCN(CC)C(=O)CN1C=NS(=O)(=O)c2ccccc21
i	O=C(NCCn1ncc2c(N3CCCCC3)ncnc21)c1cc2ccccc2o1
i	CS(=O)(=O)N1CCC(C(=O)N2CCN(CC(O)c3cccs3)CC2)CC1 (centres undefined)
i	Cc1ccc(NC(=O)Cn2nc3c(Oc4ccccc4C)nccn3c2=O)c(Cl)c1
i	COC(=O)c1ccc(NC(=O)Cn2ccn3nc(-c4ccc(Cl)cc4)cc3c2=O)cc1
i	N#Cc1nc(-c2ccc(COc3ccccc3)o2)oc1N1CCc2ccccc2C1
i	O=C(NCCc1cccs1)C1CCN(c2ncnc3c2oc2ccccc23)CC1
i	O=S(=O)(NCCN1CCN(c2ccc(F)cc2)CC1)c1cc(F)ccc1F
i	COc1ccc(-n2c(C)cn3c4c(=O)n(CCc5ccccc5)c(=O)n(C)c4nc23)c(OC)c1
i	CCOc1cc(S(=O)(=O)NCCN2CCOCC2)ccc1Br
i	COc1cccc2cc(C(=O)NCC(O)c3ccoc3)oc12 (centres undefined)
i	Cc1ccc(NC(=O)CSc2ncc(S(=O)(=O)c3ccc(Cl)cc3)c(=O)[nH]2)cc1F
i	CCOc1ccccc1/C=N\NC(=O)CNC(=O)c1ccc(S(=O)(=O)N2CCCCC2)cc1
i	Cc1ccc(-n2cc(-c3nc(-c4cccnc4)no3)c3ccccc3c2=O)cc1C
i	Cc1ccccc1NC(=O)NCCN1CCN(c2ccc(Cl)cc2)CC1
i	O=C(c1ccccc1Cl)N(Cc1ccoc1)Cc1cccs1
i	Cc1ccc(CNC(=O)COc2cc(C)nc(N3CCN(c4ccccc4)CC3)n2)cc1
i	COCCn1c(=O)c2c(nc3n2CC(C)CN3c2cccc(OC)c2)n(C)c1=O (centres undefined)
i	CC1CCCCN1C(=O)c1ccc(CNS(=O)(=O)c2cccc(C(F)(F)F)c2)cc1 (centres undefined)
i	Cc1nc(-c2cccc(NC(=O)c3csc(-n4cccc4)n3)c2)cs1
i	COc1cc(C(=O)O)c(N)cc1O
i	COc1ccc(OCc2ccc(-c3nc(C#N)c(N4CCCC4)o3)o2)cc1
i	CCCc1nnsc1C(=O)NCC1(c2ccccc2)CCOCC1
i	CCCc1nnsc1C(=O)Nc1nc2c(s1)COCC2
i	COc1ccc(Cl)c2sc(N(CCCN(C)C)C(=O)c3cc(C)no3)nc12
i	COc1ccc(-c2cc3c(SCC(=O)Nc4cccc(OC)c4)nccn3n2)cc1
i	CN(CC(=O)NC1CCN(Cc2ccccc2)CC1)c1nc2c(F)cccc2s1
i	CC(C)(C)C(=O)CSc1nnc(Cn2ccc(=O)[nH]c2=O)o1
i	COc1cccc2sc(OC3CN(C(=O)c4cc(-c5ccco5)on4)C3)nc12
i	COc1ccccc1N1CCN(C(=O)Cn2ncn3nc(-c4ccccc4)cc3c2=O)CC1
i	COc1ccc(NC(=O)c2nnn(Cc3nc(-c4ccccc4OC)oc3C)c2C)cc1
i	O=C(Cn1c(=O)nc(-c2ccccc2)c2ccccc21)Nc1ccc(F)c(F)c1
i	CCOC(=O)c1cnn2ccc(NC(=O)c3csc(-c4ccccc4)n3)cc12
i	COC(=O)c1cc(Nc2ccc(C)cc2)c2cccc(F)c2n1
i	CCCc1c(C(=O)NCc2ccco2)nnn1-c1ccc(OC)cc1
i	Cc1nc(C)c(C(=O)Nc2cnc(-n3cccn3)nc2)s1
i	Cc1csc(CN2CCN(C(=O)c3cccc(C(F)(F)F)c3)CC2)n1
i	O=C(NCc1ccco1)c1ccc(-n2cccn2)nn1
i	Cc1nn2c(N3CCCC3)cc(C(C)(C)C)nc2c1-c1ccccc1
i	COc1ccc(-c2nn3c(Nc4ccc(NC(C)=O)cc4)cc(C)nc3c2C)cc1OC
i	Cc1ccc2c(CNCc3ccco3)cc(=O)oc2c1
i	CCOC(=O)CCn1c(=O)c2c(nc3n(C4CCCCC4)c(C)c(C)n23)n(C)c1=O
i	O=C(c1cc(-c2ccco2)on1)N1CCN(c2ccccn2)CC1
i	O=C(Nc1ccccc1)c1sccc1S(=O)(=O)N1CCN(c2cccc(Cl)c2)CC1
i	CCOc1ccc(NC(=O)NCCC(O)c2ccccc2)cc1 (centres undefined)
i	COC(=O)c1ccc2c(=O)n(Cc3ccc(C)cc3)c(N3CCN(c4ccccc4OC)CC3)nc2c1
i	COc1ccc(-c2noc(Cn3c(=O)n(Cc4ccco4)c(=O)c4ccccc43)n2)c(OC)c1
i	CCSc1ccccc1C(=O)N1CC(c2nc3ccccc3[nH]2)C1
i	CN1C(=O)c2cccc(NC(=O)C3CCN(S(=O)(=O)c4ccc(Cl)cc4)CC3)c2C1=O

Next part
GIRK2 act	SMILES
i	COc1ccc(NC(=O)CSc2nccnc2N2CCN(c3ccccc3OC)CC2)c(OC)c1
i	CCCCn1c(-n2nc(C)c(C)c2C)nc2c1c(=O)n(CCN1CCOCC1)c(=O)n2C
i	CCN(CC)c1nc2cc(C(=O)OC)ccc2c(=O)n1Cc1ccc(OC)cc1
i	C#Cc1ccc(/C=C2\C=C(CC(=O)NCc3ccc(C(=O)c4ccccc4)cc3)c3cc(F)ccc32)cc1
i	COc1ccc(C2CCN(C(=O)c3c(C)nc4ccccn34)C2)cc1 (centres undefined)
i	CC(C)c1cc(SCC(=O)N2CCc3ccccc32)ncn1
i	COc1ccc(-c2c(C)oc3cc(OCC(=O)c4ccccc4)ccc3c2=O)cc1OC
i	CCOc1ccc(S(=O)(=O)NCC2(CO)CC2)cc1
i	COc1cc(/C=C2\SC(=S)N(c3ccc(O)c(C(=O)O)c3)C2=O)ccc1O
i	CS(=O)(=O)NCC1CCC(C(=O)NCc2cccs2)CC1 (centres undefined)
i	O=C(Nc1cccc(Oc2ccccn2)c1)c1c2c(nn1C1CCS(=O)(=O)C1)CCC2 (centres undefined)
i	Fc1ccc(-c2ncn(CCCN3CCOCC3)c2-c2ccncc2)cc1
i	Cn1cccc(C(=O)NCCc2nc(C3CC3)cc(C(F)(F)F)n2)c1=O
i	CC(=O)NC(C)Cc1ccco1 (centres undefined)
i	O=c1c2cc(Cl)ccc2ncn1C1CCN(S(=O)(=O)c2ccc(F)cc2F)CC1
i	COc1cccc(NC(=O)Cn2cc(S(=O)(=O)c3ccc(C)cc3)c(=O)c3cc(OC)ccc32)c1
i	Cc1cc(C(=O)Nc2nc3c(s2)CN(C(=O)C2CC(=O)N(c4ccc(Cl)cc4)C2)CC3)no1 (centres undefined)
i	COc1ccc(C(=O)NCCCS(=O)(=O)N2CCN(c3ncccn3)CC2)c(OC)c1
i	Cc1ccc(C(=O)NC2CC(=O)N(C3CC3)C2)cc1C (centres undefined)
i	CCOCC(=O)N1CCC(CSc2nccn2C)CC1
i	CC(=O)NCCNC(=O)c1csc(-c2cc3ccccc3n2C)n1
i	Cc1ccc(N2C(=O)C3N=NN(c4ccc(F)cc4)C3C2=O)cc1Cl (centres undefined)
i	Cc1cnc(-n2nnc(C(=O)N3CCOCC3)c2C)s1
i	Cc1cc(C)n(CCNC(=O)CN2CCN(c3ccccc3)C2=O)n1
i	CCCCCOc1ccc(C(=O)Nc2cc(C)on2)cc1
i	CCOC(=O)Cn1cnc2c(-c3ccccc3)csc2c1=O
i	COc1ccccc1NC(=O)N1CCC(CNC(=O)CC(CC(=O)O)c2cccs2)CC1 (centres undefined)
i	CCCNS(=O)(=O)c1cc2c3c(c1)CCC(=O)N3CCC2
i	Cc1cccc(NC(=O)Cn2cnc(-c3noc(-c4cccc(F)c4)n3)c2)c1
i	O=C1COc2cc(Cl)ccc2N1Cc1nc(-c2ccc(F)c(Cl)c2)no1

6 entries drawn at random from those above, as already listed:
GIRK2 act	SMILES
i	CCCNS(=O)(=O)c1cc2c3c(c1)CCC(=O)N3CCC2
i	CCOC(=O)Cn1cnc2c(-c3ccccc3)csc2c1=O
i	COc1ccccc1NC(=O)N1CCC(CNC(=O)CC(CC(=O)O)c2cccs2)CC1 (centres undefined)
i	COc1cccc(NC(=O)Cn2cc(S(=O)(=O)c3ccc(C)cc3)c(=O)c3cc(OC)ccc32)c1
i	Cc1ccc(N2C(=O)C3N=NN(c4ccc(F)cc4)C3C2=O)cc1Cl (centres undefined)
i	Cc1ccc(C(=O)NC2CC(=O)N(C3CC3)C2)cc1C (centres undefined)

Carrying on:
GIRK2 act	SMILES
i	O=C(Nc1nc(CN2CCc3ccccc3C2)cs1)c1ccc([N+](=O)[O-])o1
i	COc1ccc(-c2noc(C3CCN(CC(=O)Nc4ccccc4F)CC3)n2)cc1
i	CCc1ccc2oc3c(c(=O)c2c1)C(c1ccc([N+](=O)[O-])cc1)N(c1cc(C)on1)C3=O (centres undefined)
i	O=S(=O)(c1ccc(N2CCN(c3cccc(Cl)c3)CC2)nn1)C1CCCCC1
i	COc1ccc(CCNC(=O)N2CCC(Oc3nc4c(F)cccc4s3)CC2)cc1
i	CCN(CC)CCNc1nc2c(c(=O)n(Cc3ccccc3)c(=O)n2C)n1C
i	CC(=O)Cn1c(=O)c2c(nc3n(-c4cc(C)cc(C)c4)c(C)cn23)n(C)c1=O
i	O=C(c1cnn2c1OCCC2)N1CCN(c2ncccn2)CC1
i	CCOc1cc(NC(=O)c2ccccc2Cl)ncn1
i	CC(C)C(NS(=O)(=O)c1ccc(Oc2ccccc2Cl)cc1)C(=O)O (centres undefined)
i	Cc1ccc(C)c(CSc2nc(Cc3nc(-c4ncccn4)no3)cs2)c1
i	O=C(CNC(=O)c1c[nH]c2ccccc12)Nc1cccnc1
i	COc1cccc(N2CC(c3nc4ccccc4n3Cc3ccccc3)CC2=O)c1 (centres undefined)
i	O=C(CCSc1nnc2ccccn12)Nc1ccc(-c2nc3ccccc3s2)cc1
i	COc1ccccc1OCC#CCNC(=O)CCSc1ccccc1
i	COC(=O)Cn1c(=NC(=O)c2ccnn2C)sc2cc(C(=O)OC)ccc21
i	O=C(c1cccs1)N1CC(Oc2nc3c(F)cccc3s2)C1
i	COc1ccc(NC(=O)Cn2nc3cc(-c4ccccn4)nc(C)n3c2=O)cc1Cl
i	CC(=O)N1CCc2c(sc(NC(=O)CCCSc3ccc(C)cc3)c2C(N)=O)C1
i	Cc1ccc(CSc2nc(CC(=O)NCCn3nc(-c4ccco4)ccc3=O)cs2)cc1
i	Cc1nc(C)c(-c2nnc(NC(=O)C3CCCC3)o2)s1
i	Cc1ccc(Sc2nccn3c(=O)n(CC(=O)Nc4ccccc4Br)nc23)c(C)c1
i	COc1ccc(CNC(=O)CN2CCC3(CC2)N=C(c2ccc(OC)cc2)C(=O)N3)cc1

Some of the entries so far, in CSV form.
Compound,GIRK2 act
Cc1ccc(CSc2nc(CC(=O)NCCn3nc(-c4ccco4)ccc3=O)cs2)cc1,i
Cc1nc(C)c(-c2nnc(NC(=O)C3CCCC3)o2)s1,i
Cc1ccc(Sc2nccn3c(=O)n(CC(=O)Nc4ccccc4Br)nc23)c(C)c1,i
COc1ccc(CNC(=O)CN2CCC3(CC2)N=C(c2ccc(OC)cc2)C(=O)N3)cc1,i
